Screens (PubChem)
Vaccinia mCherry: vaccinia inhibition (mCherry reporter); Vaccinia virus mCherry reporter infection, fluorescence; about a quarter of the inactives have no number; Potency, µM (top dose mostly 36.5 µM), inactives show at the top dose activity change, negative = inhibition, usual class: inhibitors; 310,000 tested, 0.63% active; AID 720579; active = well fitted inhibition curve with a large enough effect; inconclusive = small, poorly fitted or top-dose-only effect; inactive = no such curve, though single readings can be large or run the other way; tested in A549 cells; note: nearly all actives have a fitted effect of over 35% in size; inactives centre near -10
VACV Venus inh: vaccinia inhibition (Venus reporter). Vaccinia virus Venus reporter expression, fluorescence. Potency, µM (doses to about 36.5 µM), for the others: at the highest dose activity change, negative = inhibition, most hits filed as inhibitors. 330,000 tested, 0.46% active; active means well fitted inhibition curve with a large enough effect; inconclusive means small, poorly fitted or top-dose-only effect; inactive means no such curve, though single readings can be large or run the other way; tested in A549 cells; note: nearly all actives have a fitted effect of over 30% in size; inactives centre near -10
An asterisk follows results filed as active; i = inactive; ? = inconclusive; · = no result given; & = joins results of further samples; [ ] = another dose, or the depositor's remark. % is set by controls: 0 for no effect and ±100 for the full control effect; potency is the fitted concentration of half-maximal effect.

Every second line gives: Vaccinia mCherry | VACV Venus inh
1	Cc1cccc(CCn2c(=O)c3ccccc3n(Cc3ccccc3C)c2=O)c1
  -9% | -3%
2	Cc1cc(C)cc(OCC(=O)OCC(=O)c2cc(C)n(C3CC3)c2C)c1
  -1% | -18%
3	O=C(O)c1ccc(Nc2ncnc3scc(-c4ccccc4)c23)cc1
  -16%&-16% | -10%&-14%
4	CCOc1ccccc1NC(=O)Cn1nc(-c2ccco2)ccc1=O
  i | -5%
5	Cc1ccc(SCC(=O)NCCSCc2ccccc2)cc1
  i | -3%
6	CC1(C)Cc2ccccc2C(N)=C1C#N
  i | -14%
7	COc1ccc(COc2ccccc2C(N)=O)cc1F
  -12% | -6%
8	O=C(Nc1ccc(N2CCOCC2)cc1)c1ccc(COc2ccccc2)cc1
  -27% | -12%
9	CCCCCOc1ccc(Br)cc1/C(C)=N/NC1=NCCN1
  ? | 13µM*
10	COCCNC(=O)c1ccccc1NC(=O)c1nsc2ccccc12
  -4% | -18%
11	COc1ccc(NC(=O)CN(Cc2ccccc2)S(=O)(=O)c2ccc(C)cc2)cc1Cl
  -28% | -13%
12	CCC(C)(C)C1CCc2[nH]nc(C(=O)NN)c2C1 (stereo not given)
  i | -21%
13	Cc1ccc(C)c(COC(=O)c2cccc(S(=O)(=O)N3CCCC3)c2)c1
  -22% | -24%
14	COc1cccc(NC(=O)Cn2cc(C(=O)c3ccc(C)cc3)c(=O)c3cc(OC)ccc32)c1
  -19% | -21%
15	COc1ccc(C(=O)Nc2nc(CC(=O)NCc3c(F)cccc3F)cs2)cc1
  -13% | -29%
16	O=C(c1ccc([N+](=O)[O-])cc1)N1CCN(C(=O)c2ccco2)CC1
  -1% | -1%
17	CN1CCCC(C)(C(=O)Nc2ccc(-n3cccc3)cc2)C1 (stereo not given)
  -1% | 13%
18	C=C1[C@@H](OC(C)=O)[C@]23C[C@@H]1[C@@H](OC(C)=O)CC2[C@]12C4C[C@H]3[C@H]1N(CC)C[C@]4(C)CC[C@@H]2O (stereo not given in full)
  -9% | -6%
19	Cc1csc(=O)n1CC(=O)OCC(=O)N(CC(C)C)c1c(N)n(Cc2ccccc2)c(=O)[nH]c1=O
  -1% | 1%
20	CC1=NN(c2ccccc2)C(=O)C1/C=C1/C(=O)NC(=O)N(c2cc(C)cc(C)c2)C1=O (stereo not given)
  · | -2%
21	COc1ccccc1CNC(=O)c1cnn2c(C)c(Cc3ccc(F)cc3)c(C)nc12
  -22% | -10%
22	COc1cccc(N(CC(=O)NC2CCCC2)C(=O)Cn2nnc(-c3ccc(C)o3)n2)c1
  -12% | -27%
23	O=c1c2ccccc2oc2ccc(Oc3ccccc3)cc12
  -7%&-7% | -4%&-21%
24	COc1ccc(C2=CC3=C(Br)C(=O)C(C)(OC(=O)c4ccco4)C(=O)C3=CO2)cc1 (stereo not given)
  -2% | ?
25	COc1ccc(OCCCN2CCCC(C)C2)cc1 (stereo not given)
  -9% | -1%
26	Cc1ccc(S(=O)(=O)N2CCCC2CNC(=O)c2ccccc2)cc1 (stereo not given)
  ? | -25%
27	COc1cccc(CN2CCN(C(=O)CC(C)C)CC2)c1
  -9% | -3%
28	O=C(O)c1ccc(Br)c(S(=O)(=O)N2CCCC2)c1
  -11% | -12%
29	CC(C)N(C(=O)CSc1nnc(-c2ccc3c(c2)OCO3)n1C)C(C)C
  i | -6%
30	COc1ccc2cc([C@H](C)C(=O)OCc3cn(CC(=O)c4ccc(O)cc4)nn3)ccc2c1
  -9% | -5%
31	CCOc1ccc(/C=N/Nc2ccc(Cl)nn2)c(O)c1
  ? | ?
32	COc1ccc(C(=O)COc2ccc3ccc(=O)oc3c2)c(OC)c1
  0% | -2%
33	O=C(NNC1CC(=O)N(c2ccc3c(c2)OCCO3)C1=O)c1ccccc1 (stereo not given)
  ? | -11%
34	CC(C)OP(=O)(c1ccc(N(C)C)cc1)C(Nc1ccccc1)c1ccccc1 (stereo not given)
  -17% | -8%
35	COc1ccccc1N(C)c1cc2c(c3c1ccn3C)C1CCC2O1 (stereo not given)
  14% | -8%
36	CCS(=O)(=O)n1nc(-c2ccc(OC)cc2)nc1N
  i | 1%
37	O=[N+]([O-])c1ccc(-c2cnc(NO)nc2)cc1
  -3% | -22%
38	O=C(Nc1ccc(F)cc1F)N1CCCN(c2ccc(C(F)(F)F)cn2)CC1
  ? | ?
39	CCCOc1ccc(N2C(=O)CC(S/C(N)=N/N=C(\C)c3cccs3)C2=O)cc1 (stereo not given)
  -15% | -3%
40	Cc1ccc(S(=O)(=O)CCN2CCC(n3cccc3)CC2)cc1
  -26%[7.34 µM] | -15%[7.34 µM]
41	COc1ccc(OC)c(CN2CCN(C(=O)CCC(=O)c3cccs3)CC2)c1
  -2% | -20%
42	Cc1ccccc1OCC(=O)Nc1c(C(=O)Nc2ccccc2F)oc2ccccc12
  -7% | -7%
43	CC(C)c1ccc(NC2CCCN(C(=O)c3cnc4ccccn4c3=O)C2)cc1 (stereo not given)
  -14% | -12%
44	COc1ccc(CCC(=O)OCC(=O)NC(=O)c2ccc(Cl)cc2)cc1
  -13% | -1%
45	Cc1ccc(NC(=S)NC2CCN(Cc3ccccc3)CC2)c(C)c1
  -24% | -9%
46	COCC(=O)n1nc(-c2ccccc2)nc1NCc1cccs1
  -7% | -5%
47	Clc1ccc(Cn2ncc3c(NCc4ccccc4)ncnc32)cc1
  ? | ?
48	N#Cc1ccccc1NS(=O)(=O)c1cc2c3c(c1)CCN3C(=O)CC2
  -12% | -6%
49	Cc1ccc(-c2noc(-c3ccoc3C)n2)cc1
  i | -17%
50	Nc1c(Cl)cc(/C=C2\C=Cc3ccccc32)cc1Cl
  33%[activator] | -11%
51	C=CCN(Cc1ccco1)S(=O)(=O)c1ccc(Cl)cc1
  i | -9%
52	O=C(Nc1ccccc1F)c1ccn[nH]1
  -4% | -8%
53	O=C(C1CC(c2ccccc2O)=NO1)N1CCCCC1 (stereo not given)
  -3% | -12%
54	COc1ccc(C2CC(=O)N3CN(c4ccccc4F)CSC3=C2C#N)cc1OC (stereo not given)
  -22% | -10%
55	Cc1cc(C)n(-c2nc3ccccc3n3c(C)nnc23)n1
  6% | 0%
56	COc1ccc(NC(=O)CSc2nc3[nH]c(=O)cc(O)c3s2)cc1OC
  -25% | -14%
57	CC(=O)Nc1cccc(-c2nc3ccc(NC(C)=O)cc3[nH]2)c1
  · | -6%
58	COc1ccc(N2C(=O)C(OC(C)=O)C2c2ccc(C)cc2)cc1 (stereo not given)
  -11% | -6%
59	C=CCNC(=O)CSc1nc2sccc2c(=O)n1-c1ccccc1
  -10% | -16%
60	CCc1ccc(OC(C)c2nc(-c3ccc(-n4cccc4)cc3)no2)cc1 (stereo not given)
  -12%[7.34 µM] | -6%[7.34 µM]

Next part.
#	Structure	Vaccinia mCherry	VACV Venus inh
61	Cc1ccc(C)c(NC(=O)c2cc(S(=O)(=O)N3CCCc4ccccc43)ccc2F)c1	-15%	-12%
62	CCOC(=O)c1nnn(-c2nonc2N)c1-c1ccc(OCC)cc1	·	-26%
63	Cc1cc(Nc2cccc(Cl)c2)nc(N2CCOCC2)n1	-21%	-27%
64	O=C(CSc1nccn1-c1ccc(F)cc1)NCc1ccc2c(c1)OCO2	·	-11%
65	Cc1ccc(/C=C/C(=O)Nc2ccc(O)c3c(=O)cc(-c4ccccc4Cl)oc23)cc1	-4%	-1%
66	CCn1c(SCC(=O)N2CCCc3ccccc32)nc2ccccc2c1=O	?	-25%
67	COc1ccc(C)cc1NC(=O)N(C(C)C)C1CCN(C(C)=O)CC1	-2%	-4%
68	CCc1ccccc1N1CC(c2nnc(NC(=O)c3ccco3)s2)CC1=O (stereo not given)	-12%	-16%
69	COc1ccc(Cn2c(O)c(/C=N/NC(=O)c3ccncc3)c(=O)[nH]c2=O)cc1	-16%	-23%
70	CC(=O)Nc1ccc(S(=O)(=O)NCc2ccc(C(=O)NCc3ccc4c(c3)OCO4)cc2)cc1	-13%	-6%
71	CCOc1ccc(-c2nnc(SCC(=O)N3CCCC3)o2)cc1	i	-8%
72	CSCc1nc2sc(C(=O)Nc3nc(C)cs3)c(C)c2c(=O)[nH]1	-22%	-3%
73	N/C(=N\O)c1cccc(CS(=O)(=O)c2ccccn2)c1	i	-12%
74	CCOC(=O)C1CCN(S(=O)(=O)CCNC(=O)c2cccc(OC)c2)CC1	i	-11%
75	CCc1ccc(N2CC(C(=O)Nc3ccc(F)cc3)CC2=O)cc1 (stereo not given)	-5%	-10%
76	Cc1ccc(-c2nc3ccccc3s2)cc1NC(=O)c1cc(-n2cnnc2)ccc1Cl	-16%	-17%
77	O=C(/C=C/C=C/c1ccccc1)c1ccco1	i	-6%
78	O=C(NCCCN1CCOCC1)c1cc2cc(Br)ccc2oc1=O	-11%	-7%
79	Cc1ccccc1CN(c1ccc(C(=O)N2CCCC2)cc1)S(C)(=O)=O	-3%	-14%
80	CCN(CCCNC(=O)c1cc2cc3cc(C)ccc3nc2s1)c1cccc(C)c1	-1%	1%
81	CC(C)c1ccc(NC(=O)c2cc(S(=O)(=O)NCCc3ccccc3)ccc2F)cc1	?	?
82	Cc1ccc(SCc2c(C#N)c3ccccc3n2C)cc1	-2%	-12%
83	Cc1cccc(CNC(=O)C2CCCN(c3nn4c(=O)cc(C)nc4s3)C2)c1 (stereo not given)	10%	9%
84	O=C(C[n+]1ccccn1)c1ccccc1	?	-10%
85	CN(Cc1nc(-c2ccncc2)no1)S(=O)(=O)c1ccccc1	-17%	-18%
86	CCCCC(=O)N1CCCC(c2nc3c(nnn3Cc3cc(C)ccc3C)c(=O)[nH]2)C1 (stereo not given)	-17%	-11%
87	Cc1cc(=O)oc2cc(OCC(=O)OCC(=O)Nc3ccccc3F)ccc12	-3%	-17%
88	CCOc1ccc(NC(=O)CS(=O)(=O)c2cn(C)c3ccccc23)cc1	-9%	5%
89	CCN(CC)S(=O)(=O)c1cccc(C(=O)Nc2ccccc2C(=O)Nc2ccc(Cl)cc2)c1	-13%	-15%
90	Cc1ccc(C)c(N(C(=O)c2csnn2)C(C(=O)NC2CCCCC2)c2ccncc2)c1 (stereo not given)	-9%	1%

Profiles as entered above. Order of values: Vaccinia mCherry | VACV Venus inh
CCC(C)(C)C1CCc2[nH]nc(C(=O)NN)c2C1 (stereo not given) reads i | -21%
CCS(=O)(=O)n1nc(-c2ccc(OC)cc2)nc1N reads i | 1%
Cc1cccc(CCn2c(=O)c3ccccc3n(Cc3ccccc3C)c2=O)c1 reads -9% | -3%

Next section.
#	Structure	Vaccinia mCherry	VACV Venus inh
91	COc1ccc(C(=O)Nc2ccc([N+](=O)[O-])cn2)c(OC)c1	-16%	-11%
92	Cc1ccc(CCNC(=O)C2CCC(=O)N(CC3CCCCC3)C2)cc1 (stereo not given)	-15%	-17%
93	O=C(c1cc(-c2ccc(Cl)cc2)on1)N1CCCCCC1	-6%	-4%
94	COc1ccc(C)cc1NC(=O)CNC(=O)Cn1ccc2ccccc2c1=O	-15%	-8%
95	O=C(CNC(=O)c1ccccc1F)c1ccc(Br)cc1	i	-16%
96	Oc1ccccc1/C=N/NC(=S)NC1CC2C=CC1C2 (stereo not given)	-25%[7.34 µM]	-13%[7.34 µM]
97	COCCC(=O)N1CCCC(C(=O)c2ccccc2SC)C1 (stereo not given)	-8%	-9%
98	OC(CNCc1ccc2c(c1)OCO2)COc1ccccc1 (stereo not given)	-2%	-14%
99	CC(CN1CCOCC1)C(=O)O (stereo not given)	·	11%
100	O=c1c2ccccc2oc2cc(C#Cc3ccccn3)ccc12	5%	-8%
101	COc1ccc2sc(-c3ccc(SC)cc3)c(-c3ccc(O)cc3)c2c1	?	11µM*
102	Cc1cccc(C(=O)NCC(=O)NCCSc2ccc(Br)cc2)c1	i	-17%
103	COC(=O)C[C@H]1C=C[C@@H](NC(=O)C2CC2)[C@@H](CO)O1	-2%	-3%
104	CCCN(C(=O)CCNC(=O)Cn1cnc2ccccc2c1=O)c1cccc(Cl)c1	i	-9%
105	O=c1cc(Cl)c(-c2ccccc2)nn1Cc1ccc(Cl)cc1	?	-19%
106	O=C1/C(=C\c2ccccn2)SC(=S)N1c1ccc(S(=O)(=O)Nc2nccs2)cc1	-8%[7.34 µM]	-7%[7.34 µM]
107	Cc1c(C(=O)NCC(c2ccco2)N(C)C)oc2c(Cl)cccc12 (stereo not given)	-25%	-11%
108	Cc1ccccc1/C=N\NC(=O)c1csnn1	·	-19%
109	COc1ccc(C(=O)NOCc2ccccc2)cc1	-13%	-10%
110	O=C(O)C1CCC(=O)N1C1c2ccccc2Oc2ccccc21 (stereo not given)	-1%	0%
111	Cc1ccc(C(=O)NCC(=O)OCC(=O)NC2CCS(=O)(=O)C2)cc1C (stereo not given)	i	1%
112	COc1ccc(-n2nc3c(c2NC(=O)c2ccc(Br)cc2)CS(=O)C3)cc1 (stereo not given)	4%	-9%
113	Cn1cnnc1SCC(=O)Nc1cc(S(=O)(=O)N2CCCCC2)ccc1Cl	31%[activator]	-1%
114	COc1cc(/C(C)=N/NC(=O)CSc2nc3ccccc3[nH]2)ccc1O	?	1%

Entries shown so far with a COOH group, in the order listed:
#	Structure	Vaccinia mCherry	VACV Venus inh
3	O=C(O)c1ccc(Nc2ncnc3scc(-c4ccccc4)c23)cc1	-16%&-16%	-10%&-14%
28	O=C(O)c1ccc(Br)c(S(=O)(=O)N2CCCC2)c1	-11%	-12%
99	CC(CN1CCOCC1)C(=O)O (stereo not given)	·	11%
110	O=C(O)C1CCC(=O)N1C1c2ccccc2Oc2ccccc21 (stereo not given)	-1%	0%
